RecA splice inh: Mtb RecA intein splicing inhibition; P9WHJ3; cell-free RecA intein splicing, fluorescence; inhibition, %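 (about 9 µM by stock and volumes)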; actives 0.75% (n = 290,000); AID 2221; in the data active = inhibition above about 30%;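 also: 0% = vehicle wells and 100% = reference inhibitor control wells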
Target sequence (P9WHJ3 whole entry, looked up, canonical isoform): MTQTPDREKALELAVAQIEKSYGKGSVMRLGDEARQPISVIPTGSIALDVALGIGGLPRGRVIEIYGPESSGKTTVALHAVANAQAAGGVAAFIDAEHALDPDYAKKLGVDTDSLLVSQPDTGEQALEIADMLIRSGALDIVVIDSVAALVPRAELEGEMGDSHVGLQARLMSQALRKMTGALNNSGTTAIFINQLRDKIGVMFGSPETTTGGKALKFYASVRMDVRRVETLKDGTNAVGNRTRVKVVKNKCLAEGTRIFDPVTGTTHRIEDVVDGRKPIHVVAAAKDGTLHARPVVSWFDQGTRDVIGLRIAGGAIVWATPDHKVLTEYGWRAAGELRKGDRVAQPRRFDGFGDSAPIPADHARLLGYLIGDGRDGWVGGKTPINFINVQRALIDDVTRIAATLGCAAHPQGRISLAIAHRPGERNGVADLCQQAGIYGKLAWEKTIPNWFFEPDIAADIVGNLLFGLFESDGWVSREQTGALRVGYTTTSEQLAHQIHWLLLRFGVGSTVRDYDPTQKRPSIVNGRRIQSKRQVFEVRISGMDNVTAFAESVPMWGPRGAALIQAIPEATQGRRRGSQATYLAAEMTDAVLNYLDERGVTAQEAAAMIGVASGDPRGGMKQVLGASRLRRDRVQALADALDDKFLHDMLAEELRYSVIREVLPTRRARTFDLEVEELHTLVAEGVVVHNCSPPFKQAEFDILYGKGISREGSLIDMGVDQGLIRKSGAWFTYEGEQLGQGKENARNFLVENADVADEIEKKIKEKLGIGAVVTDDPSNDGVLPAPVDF
Active calls of the source: *.

Start of the listing, in advance, 6 compounds:
SMILES | RecA splice inh
CCN(Cc1ccccc1)C(=O)c1[nH]c2ccc(OC)cc2c1C | -0.5
COc1ccc(C(=O)Nc2nc3ccccc3s2)c(OC)c1 | 1.9
COc1ccc(NC(=O)c2oc3ccccc3c2CSC)cn1 | 0.8
Cc1cc(Br)c(NC(=O)CN2CCCC2)c(Br)c1 | 0.6
O=C(N/C(=C/c1ccco1)C(=O)N1CCOCC1)c1ccc([N+](=O)[O-])cc1 | -5.4
CNC(=O)c1cc(S(=O)(=O)N2CC(C)OC(C)C2)ccc1N1CCOCC1 (stereo not given) | 0.7

Main list (from the top)
SMILES | RecA splice inh
CCN(Cc1ccccc1)C(=O)c1[nH]c2ccc(OC)cc2c1C | -0.5
COc1ccc(C(=O)Nc2nc3ccccc3s2)c(OC)c1 | 1.9
COc1ccc(NC(=O)c2oc3ccccc3c2CSC)cn1 | 0.8
Cc1cc(Br)c(NC(=O)CN2CCCC2)c(Br)c1 | 0.6
O=C(N/C(=C/c1ccco1)C(=O)N1CCOCC1)c1ccc([N+](=O)[O-])cc1 | -5.4
CNC(=O)c1cc(S(=O)(=O)N2CC(C)OC(C)C2)ccc1N1CCOCC1 (stereo not given) | 0.7
O=C(CN1CCC(NC(=O)C2CCCCC2)CC1)Nc1cccc(F)c1 | -0.8
Cn1nccc1C(=O)OCC(=O)Nc1ccccc1 | 0.8
COc1cccc(NC(=O)CCC(=O)Nc2cc(OC)c(NC(=O)c3cccs3)cc2OC)c1 | 4.2
CC(=O)c1ccc2c(c1)c(C#N)c1ccccc1[n+]2[O-] | -1.1
CCN(CC)C1CCN(C(=O)c2ccc3nc(Cc4ccc(OC)cc4)oc3c2)C1 (stereo not given) | 0.7
Cc1cc(N2CCN(C)CC2)nc2ccc(NC(=O)CCC(=O)NCCc3ccc(Cl)cc3)cc12 | 0.7
CC(C)CN(C(=O)c1ccc(S(=O)(=O)N2CCCCC2)cc1)C1CCS(=O)(=O)C1 (stereo not given) | 0.0
O=[N+]([O-])c1cc(CSC2=NCCN2)ccc1O | -2.5
CCCCn1c2ccccc2c2nnc(SCCN3CCCCC3)nc21 | 2.9
Cc1ccc(C)c(-n2c(-c3ccco3)n[nH]c2=S)c1 | -0.6
COCCn1c(C)nnc1SCC(=O)NNC(=O)c1ccc(Br)cc1 | -1.0
O=C(CCN1C(=O)c2ccccc2S1(=O)=O)Nc1ccccc1F | -1.7
COc1ccc(Cl)cc1NC(=O)CSc1nc(NS(=O)(=O)c2ccccc2)cc(=O)[nH]1 | 0.0
CC(=O)Nc1ccc(Nc2ncnc3c2nnn3Cc2ccccc2Cl)cc1 | 2.4
C=CCNc1nc2c(c(=O)[nH]c(=O)n2C)n1CC(O)COc1ccc2ccccc2c1 (stereo not given) | -0.3
Cc1ccc(S(=O)(=O)N(CC(=O)Nc2cccc([N+](=O)[O-])c2)C(=O)N2CCN(C)CC2)cc1 | -2.7
O=S1(=O)CCO[C@H]2Cc3ccccc3[C@H]2N1Cc1ccc(Cl)cc1 | 0.2
O=C(Nc1cc(Br)ccc1O)c1cc(-c2ccccc2)on1 | -0.1
COc1cccc(NC(=O)CSc2nnnn2C2CCCCC2)c1 | 0.9
COc1ccccc1CC(NC(C)=O)C(=O)NC1CCN(C(=O)Nc2cccc(F)c2)CC1 (stereo not given) | 1.7
CC(=O)Nc1ccc(S(=O)(=O)N2CCN(C(=O)c3ncoc3-c3ccccc3)CC2)cc1 | 0.4
CCN1CCN(C(=O)NS(=O)(=O)c2ccc(C)cc2)CC1 | 1.0
CCCN(CCC)CCNC(=O)c1cn(C)c(=O)c2c1c1ccccc1n2C | -1.0
Cc1ccc2nc(CCCc3nc4ccc(C)cc4[nH]3)[nH]c2c1 | 2.3
COc1ccc(C(=O)C2CCCN(C(=O)c3ccc(C(C)=O)s3)C2)c(C)c1 (stereo not given) | -4.0
COc1ccccc1N1CCN(C(=O)c2c(-c3c(F)cccc3Cl)noc2C)CC1 | 5.0
Cc1ccc(S(=O)(=O)N(CC(=O)Nc2ccc(C)c(Cl)c2)C(=O)N2CCN(C)CC2)cc1 | 6.9
O=C(CSc1nc(NS(=O)(=O)c2ccccc2)cc(=O)[nH]1)Nc1ccccc1Cl | 3.4
Fc1ccccc1CNCC1CCCO1 (stereo not given) | -2.6
O=C(Nc1cccc(O)c1)c1cccc(S(=O)(=O)N2CCCCCC2)c1 | -0.6
CCc1cc2c(=O)c(-c3nc4ccccc4n3C)coc2c(CN2CCC(C)CC2)c1O | 1.3
O=C(NCc1ccc(OC(F)(F)F)cc1)C1CCC(=O)N(C2CC2)C1 (stereo not given) | -3.9
COc1ccccc1CC(NC(C)=O)C(=O)NC1CCN(S(=O)(=O)c2ccccc2)CC1 (stereo not given) | -0.3
COc1cc(C(=O)Nc2ccc(NC(=O)c3cccc(Cl)c3)nc2)cc(OC)c1OC | 0.2

Seven of the compounds above, with tabs:
smiles	RecA splice inh
CC(=O)Nc1ccc(S(=O)(=O)N2CCN(C(=O)c3ncoc3-c3ccccc3)CC2)cc1	0.4
CCN1CCN(C(=O)NS(=O)(=O)c2ccc(C)cc2)CC1	1.0
CCCN(CCC)CCNC(=O)c1cn(C)c(=O)c2c1c1ccccc1n2C	-1.0
Cc1ccc2nc(CCCc3nc4ccc(C)cc4[nH]3)[nH]c2c1	2.3
COc1ccc(C(=O)C2CCCN(C(=O)c3ccc(C(C)=O)s3)C2)c(C)c1 (stereo not given)	-4.0
COc1ccccc1N1CCN(C(=O)c2c(-c3c(F)cccc3Cl)noc2C)CC1	5.0
Cc1ccc(S(=O)(=O)N(CC(=O)Nc2ccc(C)c(Cl)c2)C(=O)N2CCN(C)CC2)cc1	6.9

(next part)
SMILES | RecA splice inh
CCCCC(C(=O)NC(C)(C)C)N(Cc1ccccc1Cl)C(=O)c1snc(C(N)=O)c1N (stereo not given) | 3.2
Cc1cc(C)cc(NC(=O)c2cccc(N3C(=O)C4C5C=CC(C5)C4C3=O)c2)c1 (stereo not given) | -4.7
CCS(=O)(=O)N1CCC2(CC1)OCCN2S(=O)(=O)c1ccc(OC)cc1 | -5.2
Cc1oc2cc3oc(=O)c(CC(=O)NCCC(=O)O)c(C)c3cc2c1C | -1.5
COc1cc(/C=C\C(=O)O)cc(S(=O)(=O)N2CCCCCC2)c1OC | -1.5
Cc1nc(N2CCN(Cc3ccc4c(c3)OCO4)CC2)[nH]c(=O)c1C | 1.0
COC(=O)c1ccc(NC(=O)C2CCCN2C(=O)Nc2cccc(C(C)=O)c2)cc1 (stereo not given) | 0.4
C=CCOn1c(=O)c(-c2ccc(Cl)cc2)[n+]([O-])c2ccccc21 | -1.9
COc1ccc(C(=O)N2CC(=O)Nc3ccc(C)cc3C2c2ccccc2)cc1 (stereo not given) | 0.5
CCNc1nc(SCC(N)=O)nc2sc3c(c12)CCN(C)C3 | -0.8
CC1CCCN(C(=O)C2CCN(c3ncnc4c3nc3n4CCCCC3)CC2)C1 (stereo not given) | -3.8
O=C(c1cccs1)N1CCN(Cc2cn[nH]c2-c2ccc(F)cc2F)CC1 | 14
CC(Cc1ccccn1)NC(=O)c1ccc(OC2CCN(CCc3ccccc3)CC2)cc1 (stereo not given) | -2.7
O=C(CSc1nnc2ccc(-c3cccnc3)nn12)Nc1cccc(F)c1 | 10
Cc1ccn2c(C(=O)N/N=C/c3ccc(Cl)cc3)c(C)nc2c1 | -0.5
COc1ccc(C)cc1N(C(=O)c1snc(C(N)=O)c1N)C(C(=O)NC1CCCCC1)c1ccc(C)o1 (stereo not given) | 3.7
CN1CCN(C2CCN(S(=O)(=O)c3ccc(C(C)(C)C)cc3)CC2)CC1 | 0.4
Cc1ccc2c(c1)C1(C(=O)N2)N2CCCC2C(C(=O)c2ccc3ccccc3c2)C12C(=O)Nc1ccccc12 (stereo not given) | 6.8
Cc1ccc(C(=O)N/C(=C\c2cn(S(=O)(=O)N(C)C)c3ccccc23)C(=O)NCCN2CCOCC2)cc1 | 2.1
C/C(=N\NC(=O)c1cccc2ccccc12)c1ccccn1 | -1.1
CC(C)Cc1ccc(CN2CCCC(NC(=O)c3nn(C)c(=O)c4ccccc34)C2)cc1 (stereo not given) | -2.3
COc1ccccc1NC(=O)CSc1nnc(C)s1 | 0.1
Cc1ccc(OCCn2cc(/C=C/C(=O)O)c3ccccc32)cc1 | -0.2
COc1ccc(/C(O)=C2/C(=O)C(=O)N(c3ccccn3)C2c2ccc(C(C)C)cc2)cc1 (stereo not given) | -0.4
COc1ccc(/C(O)=C2/C(=O)C(=O)N(c3ccccn3)C2c2ccc(OC)cc2)cc1 (stereo not given) | -0.7
CCOc1ccc(N(CC(=O)NC2CCCC2)C(=O)Cn2nnc(-c3ccc(C)o3)n2)cc1 | 0.9
O=C(NCCOc1ccccc1F)C1CCC(=O)N(CC2CCCCC2)C1 (stereo not given) | -3.3
O=C(N/N=C/c1ccc(COc2ccc(Br)cc2)o1)c1ccc2c(c1)OCO2 | 1.1
O=C(c1ccc(N2C(=O)C3C4CC(C(Br)C4Br)C3C2=O)cc1)N1CCCCC1 (stereo not given) | -1.5
CNC(=O)c1c(NC(=O)c2ccc3ncsc3c2)sc(C)c1C | -0.4
Cn1cc(Cl)c(C(=O)OCC(=O)Nc2cccc(Cl)c2)n1 | 1.8
Cc1ccc(C(=O)N2CCN(CCNC(=O)C(=O)Nc3ccc(Cl)cc3)CC2)cc1 | -2.5
Cc1ccccc1NC(=O)CSc1nc2ccc(Nc3nc(N4CCOCC4)nc(N4CCOCC4)n3)cc2s1 | -1.2
Cc1ccc2nc(NCCc3ccccc3)c3nncn3c2c1 | -0.4
COc1ccc(N(C(=O)c2snc(C(N)=O)c2N)C(C(=O)NC2CCCC2)c2ccco2)c(OC)c1 (stereo not given) | 7.0
C/C(=N\NC(=O)c1ccco1)c1ccc(NC(=O)C(F)(F)F)cc1 | 1.1
COc1ccc(NC(=O)c2cc3c(CO)cnc(C)c3oc2=Nc2cccc(C)c2)c(OC)c1 | -0.5
O=C(Cn1cnc2sc3c(c2c1=O)CCCC3)NCC(=O)Nc1ccccc1F | -0.3
Cc1nc(NC(=O)c2ccc(Br)o2)ccc1Br | 2.3
Cc1nc2ccccc2n1S(=O)(=O)c1ccc(F)cc1 | -2.8
C/C(=C\c1ccc(F)cc1)C(=O)c1c(C)cc(C)[nH]c1=O | -1.4
COCCCn1c(=O)/c(=C\c2cccc(OC)c2OC)s/c1=C(/C#N)C(=O)Nc1ccc(C(=O)O)cc1 | -1.8
CN(Cc1ccccc1)C(=O)CCC1CCN(C(=O)CC2=CCCCC2)CC1 | -3.2
COc1ccc(CN2CCNC(=O)C2CC(=O)N(C)CC2CCOCC2)cc1C (stereo not given) | -0.9
CN1C(=O)/C(=C\c2cccc(OCc3ccccc3)c2)SC1=S | 0.7
O=C(CSc1nnc2ccc(-c3ccco3)nn12)Nc1ccccc1F | 1.4
O=c1[nH]c(C2CCN(S(=O)(=O)c3ccc4c(c3)OCCO4)CC2)nc2c1nnn2Cc1ccccc1 | 2.6
COc1cccc(NC(=O)N2CCC(NC(=O)C(Cc3ccccc3OC)NC(C)=O)CC2)c1 (stereo not given) | 0.3
Cc1ccc(C(=O)CN2CCN(c3ccccn3)CC2)c(C)c1 | -0.2
CN(C)c1ccc(/C=C/c2c([N+](=O)[O-])c(=O)n(C)c(=O)n2C)cc1 | -1.1
COc1ccc(CC(NC(C)=O)C(=O)NC2CCN(C(=O)c3ccc(Cl)cc3)CC2)cc1 (stereo not given) | 0.7
CN(Cc1cccc2cnccc12)C(=O)c1cc(COc2ccc(F)cc2F)on1 | 2.2
CCn1cc([N+](=O)[O-])c(C(=O)N2CCCc3ccccc32)n1 | -6.8
CN(C)S(=O)(=O)N1CCc2ccc(NC(=O)C3CCCO3)cc2C1 (stereo not given) | -4.1
O=C(CSc1nc(=O)n2cc(Cl)ccc2n1)Nc1cccc2ccccc12 | 13
CC(=O)NS(=O)(=O)c1ccc(NC(=O)c2ccc3c(c2)OCO3)cc1 | -0.7
Cn1c(/C=C/c2ccc(Cl)cc2)nc2ccccc2c1=O | -69
COc1ccccc1C(=O)C1CCCN(C(=O)c2ccccc2C(C)=O)C1 (stereo not given) | -3.1
COc1cccc(C(=O)COc2ccc(NC(=O)c3ccccc3)cc2)c1 | -5.9
Cc1nnc(NC(=O)CS(=O)(=O)Cc2ccccc2)s1 | 0.9

The list goes on.
SMILES | RecA splice inh
COc1ccc(S(=O)(=O)Oc2cc(C(=S)N3CCOCC3)ccc2OC)cc1 | 1.9
Cc1ccc(OCC(=O)NCCNC(=O)c2cnccn2)cc1C | -2.0
CC(C)N1CCN(C(=O)C2CCC(=O)N(CCc3cccc(F)c3)C2)CC1 (stereo not given) | 3.4
COc1ccc(/C=C2\SC(=S)N(CCC(=O)Nc3cccc(O)c3)C2=O)cc1 | 1.9
CN1CCN(C(=O)CN(C2CCCCC2)S(=O)(=O)c2ccccc2)CC1 | -0.1
COc1ccc(CCNS(=O)(=O)c2cc3c4c(c2)CCN4C(=O)CC3)cc1OC | 6.9
COc1ccc(CCC(=O)Nc2sc(C(=O)N(C)C)c(C)c2C#N)cc1 | -1.8
COc1ccccc1-c1cc(C(=O)N/N=C/c2ccc(C)o2)c2ccccc2n1 | -0.2

These rows are one share of the data; rates above refer to the full screens.
